From PubChem BioAssay
Menin MLL FP FL: qHTS Assay for Inhibitors Targeting the Menin-MLL Interaction in MLL Related Leukemias: Competition With Fluorescein Labeled MLL-derived Peptide | 290,000 tested, under 10 active | FP activity change, % at 61.4 µM | Fluorescence polarization, fluorescein-MLL peptide displacement from menin; inconclusive = falling polarisation curve, or a change in total fluorescence; inactive = total fluorescence flat and polarisation flat or rising; no compound was filed as active; the % refers to the polarisation; negative = inhibition;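 note: % of control where 0% means no effect; inhibitors lower the polarisation; unlabelled MLL peptide was the positive control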
Sfp inh: qHTS Assay for Inhibitors of Bacillus subtilis Sfp phosphopantetheinyl transferase (PPTase) | Biochemical Sfp PPTase activity, qHTS | Potency, µM, for the others: max response, negative = inhibition, hits mostly inhibitors | 310,000 compounds, 3.5% hits | AID 1490, 2009; active = well fitted inhibition curve with a large enough effect; inconclusive = small, poorly fitted or top-dose-only effect, or another doubt; inactive = no such curve, though single readings can be large or run the other way;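 note: the enzyme is Sfp with the accession as filed and its product quenches rhodamine fluorescence; potency is the fitted concentration of half-maximal effect; 0% = enzyme reaction without inhibitor and -100% = no enzyme wells; top concentration of the series not given in the record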
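Fluorescence-quenching assay: 15 nM Sfp-PPTase preincubated 15 min at room temperature with compound, then 5 uM rhodamine-CoA and 12.5 uM BHQ-2-labelled YbbR peptide added. Fluorescence (ex 525/em 598 nm) read at start and after 30 min; difference gives rate.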
ClpP mod: qHTS Assay for Activators of ClpP. ATP-dependent Clp protease proteolytic subunit (Bacillus subtilis (strain 168)), P80244. purified B. subtilis ClpP, FRET peptide cleavage, 20 min. Potency, µM (series often up to 57.5 µM), for inactives: top-dose activity change, negative = active. 340,000 compounds, 1.9% hits. AID 651965, 2013; active = well fitted falling curve with a large enough effect; inconclusive = small, poorly fitted or top-dose-only effect; inactive = no such curve, though single readings can be large or run the other way; note: potency is the fitted concentration of half-maximal effect; the source files actives as falling curves though it sought activators and does not explain the sign; nearly all actives have a fitted effect of over 65% in size; many hits overshoot -100%
Target sequence (P80244 whole entry, looked up): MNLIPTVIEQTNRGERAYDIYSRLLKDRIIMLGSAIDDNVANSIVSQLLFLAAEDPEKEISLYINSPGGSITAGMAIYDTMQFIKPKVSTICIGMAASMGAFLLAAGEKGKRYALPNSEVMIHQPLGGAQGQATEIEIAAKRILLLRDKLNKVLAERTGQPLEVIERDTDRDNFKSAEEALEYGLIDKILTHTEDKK
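FRET quenching reversal measured ClpP activation: 10 microg/mL B. subtilis ClpP at pH 8 with the FRET-FV decapeptide, read at 430 nm after 320 nm excitation. The 20-min minus 0-min signal was scaled between DMSO/no-enzyme wells and ADEP (5.8 microM final).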
TRPV1 PAM: HTS Assay for Compounds that Act as Potentiators of the Vanilloid Receptor 1. TRPV1-expressing cells, Fluo-8 calcium influx, capsaicin EC20 potentiation; host cell line not named in the record; control for the full effect not named in the record. AID 540277, 2011. potentiation, % at 8.33 µM. 320,000 compounds, 0.02% hits; active means potentiation above 80%; inconclusive means 30% to 80%; inactive means below 30%; note: 0% is about no effect
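Cells expressing TRPV1 were dye-loaded with Fluo-8 and read kinetically: 10 s baseline, 3 min after compound (agonist portion), then 2 min after EC20 capsaicin (allosteric enhancer portion). Calcium-bound dye fluorescence at 480/520 nm.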
TRPML1 agonist: qHTS for Agonists of the Human Mucolipin Transient Receptor Potential 1 (TRPML1) | Mucolipin-1 (Homo sapiens), Q9GZU1 | TRPML1-expressing cells, Ca2+ dye fluorescence, FDSS; host cell line not named in the record; reference of the full effect not given here | activation, % (no concentration beside the values) | 410,000 compounds, 0.12% hits; in the data active = activation above about 50%; inconclusive = about 30% to 50%; inactive = below about 30%; note: 0% is about no effect; the text of the record puts the active cut at 80%
Target sequence (Q9GZU1 whole entry, looked up): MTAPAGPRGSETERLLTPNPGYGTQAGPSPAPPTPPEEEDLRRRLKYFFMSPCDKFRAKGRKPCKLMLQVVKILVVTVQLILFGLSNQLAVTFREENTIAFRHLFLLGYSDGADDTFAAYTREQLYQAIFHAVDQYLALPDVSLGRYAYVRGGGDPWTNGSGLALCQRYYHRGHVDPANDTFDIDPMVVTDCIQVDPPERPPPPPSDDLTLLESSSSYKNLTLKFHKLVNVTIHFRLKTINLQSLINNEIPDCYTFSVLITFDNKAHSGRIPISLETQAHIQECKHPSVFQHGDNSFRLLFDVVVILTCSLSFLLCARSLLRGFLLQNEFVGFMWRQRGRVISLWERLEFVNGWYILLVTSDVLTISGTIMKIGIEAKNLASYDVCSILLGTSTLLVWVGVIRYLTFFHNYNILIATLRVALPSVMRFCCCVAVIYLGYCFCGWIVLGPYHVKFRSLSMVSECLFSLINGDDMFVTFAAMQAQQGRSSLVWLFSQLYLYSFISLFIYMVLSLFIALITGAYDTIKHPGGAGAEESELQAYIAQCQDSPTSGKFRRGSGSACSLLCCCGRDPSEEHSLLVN
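In this qHTS format, compounds were pin-transferred onto Ca8-dye-loaded TRPML1-DL cells induced with Tet overnight, and intracellular Ca2+ fluorescence was recorded kinetically for 110 s after a 10 s baseline. A subsequent 4uM final 54-4 (EC80) addition followed by a second 110 s read served as the antagonist phase.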
TRPML1 blocker: qHTS for Inhibitors of the Human Mucolipin Transient Receptor Potential 1 (TRPML1) | AID 624415, 2012 | activity change, negative = inhibition, % (no concentration beside the values) | TRPML1-inducible cells, Ca2+ dye fluorescence, FDSS; active compounds read low; inhibition of EC80 agonist-evoked calcium signal | 390,000 compounds, 0.02% hits; in the data active means activity change below about -50%; inconclusive means about -30% to -50%; inactive means above about -30%;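 note: stimulus is agonist 54-4 at its EC80 concentration; % is set by controls: 0 for no effect and ±100 for the full control effect; compound concentration not given in the record; the text of the record puts the active cut at -80%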
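Calcium fluorescence in TRPML1-DL cells induced overnight with Tet: a 110 s read after compound pin addition, then a 110 s antagonist read after challenge with 54-4 at 4 uM final (EC80).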
PINK1 modulator: A Quantitative High throughput Screen to Identify Chemical Modulators of PINK1 Expression; 410,000 compounds, 0.2% hits; AID 624263, 2012; PINK1 immunofluorescence, high-content cytometry, 24 h; Potency, µM (series often up to 76.6 µM), without a hit: at the top dose activation (PINK1 increase), most hits filed as activators; active = well fitted activation curve with a large enough effect; inconclusive = small, poorly fitted or top-dose-only effect; inactive = flat fitted curve, though single readings scatter; cell line not stated here;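 note: potency is the fitted concentration of half-maximal effect; % of control where 0% means no effect; nearly all actives have a fitted effect of over 65% in size; a mitochondrial uncoupler was the plate control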
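Fluorescence from anti-PINK1 antibody, together with nuclear and cell stains, was scanned on a laser-scanning cytometer. Before staining, stable-line cells were incubated 24 hours with compounds at 5 concentrations; primary antibody 12 h at 10 degrees C.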
An asterisk follows results filed as active; [ ] = remark or other dose. Compounds as they come. About 4.4% of those tested had a hit in this group.

Screening O=C(CNc1cccc(S(=O)(=O)N2CCOCC2)c1)Nc1ccccc1F returned Sfp inh 17.3%, ClpP mod -2.2%, TRPV1 PAM 5.8, TRPML1 agonist 0.6, TRPML1 blocker -15.1 and PINK1 modulator 0.1%.
Screening CCOC(=O)C1(Cc2cccc(OC)c2)CCN(Cc2cc(OC)ccc2OC)CC1 returned Menin MLL FP FL -7.5, Sfp inh 17.0%, TRPV1 PAM -0.5, TRPML1 agonist 2.9, TRPML1 blocker -13.2 and PINK1 modulator 10.9%.
`CCOc1ccccc1C1C(C#N)=C(N)SC(N)=C1C#N` gave Menin MLL FP FL inconclusive, Sfp inh 44.7µM*, ClpP mod 1.4%, TRPV1 PAM -13.5, TRPML1 agonist 0.3, TRPML1 blocker 1.2 and PINK1 modulator -0.1%.
`CCN1C(=O)C2(c3ccccc31)c1c(oc3ccc(F)cc3c1=O)C(=O)N2CCCOC` (configuration not stated) gave ClpP mod -2.5%, TRPML1 agonist -0.7, TRPML1 blocker -10.3 and PINK1 modulator 1.3%.
CN(C)c1ccc(N2C(=NC(=O)COc3ccccc3)SC3CS(=O)(=O)CC32)cc1 (configuration not stated) was read as Sfp inh 2.5%, ClpP mod 1.5%, TRPV1 PAM -26.2, TRPML1 agonist -0.2, TRPML1 blocker -22.0 and PINK1 modulator -0.4%.
CC1CCN(C(=O)c2ncn(Cc3ccccc3)c2C(=O)N2CCC(C)CC2)CC1 was read as ClpP mod 0.4%, TRPML1 agonist -0.5, TRPML1 blocker -8.2 and PINK1 modulator -1.3%.
O=C(NCCO)c1scc2c1OCCO2 was read as Menin MLL FP FL 2.3, Sfp inh 8.4%, ClpP mod -2.4%, TRPV1 PAM 10.1, TRPML1 agonist -0.4, TRPML1 blocker 1.1 and PINK1 modulator 5.3%.
`Cc1nn(C)cc1/C=N/NC(=O)C(C)(C)Oc1ccc(Cl)cc1` gave Menin MLL FP FL 2.0, Sfp inh -0.9%, ClpP mod -0.3%, TRPV1 PAM -7.4, TRPML1 agonist 0.6, TRPML1 blocker -14.2 and PINK1 modulator 8.8%[38.3 µM].
For O=C(COC(=O)c1ccccc1)Nc1ccccc1Br the results were Menin MLL FP FL -2.3, Sfp inh 15.0%, TRPV1 PAM -4.9, TRPML1 agonist 2.5, TRPML1 blocker -4.6 and PINK1 modulator 4.8%.
`COc1ccccc1C/C(N)=N/OC(=O)c1cccs1` gave Menin MLL FP FL -1.3, Sfp inh 12.9%, ClpP mod 0.2%, TRPV1 PAM 3.1, TRPML1 agonist -1.3, TRPML1 blocker -3.1 and PINK1 modulator -2.1%.
Screening CON/C=C(\C=Nc1ccc(Cl)cc1)c1ncc(C(F)(F)F)cc1Cl returned Menin MLL FP FL 2.0, Sfp inh 7.8%, ClpP mod -1.8%, TRPV1 PAM -9.9, TRPML1 agonist 3.0, TRPML1 blocker 24.0 and PINK1 modulator 1.9%.
Screening COc1cc(OC)c(C(=O)O/N=C(\N)c2cccc(C)c2)cc1OC returned Menin MLL FP FL -3.3, Sfp inh 9.2%, ClpP mod 0.3%, TRPV1 PAM 13.7, TRPML1 agonist -1.5, TRPML1 blocker 3.7 and PINK1 modulator -2.6%.
CN1CCOc2c1cnn(CCO)c2=O was read as ClpP mod 4.6%, TRPML1 agonist -0.1 and PINK1 modulator 1.0%.
Screening CCCN(C(=O)c1ccc2c(=O)n3c(nc2c1)CCCCC3)c1cccc(Cl)c1 returned ClpP mod 2.0%, TRPML1 agonist 1.9, TRPML1 blocker 0.2 and PINK1 modulator 0.3%.
`COc1ccc(-n2ncc3c(NCCCn4ccnc4)ncnc32)cc1` gave Menin MLL FP FL -7.1, Sfp inh 20.0%, ClpP mod inconclusive, TRPV1 PAM -13.5, TRPML1 agonist -0.3, TRPML1 blocker -9.0 and PINK1 modulator -0.9%.
Screening COc1ccc(/C=C/C(=O)NNc2cc(=O)n(C)c(=O)n2C)cc1OC returned Menin MLL FP FL -1.3, Sfp inh 9.4%, ClpP mod 3.8%, TRPV1 PAM -4.5 and PINK1 modulator 0.2%.
Screening COc1ccc2[nH]c3c(c2c1)CCC/C3=N\N returned Menin MLL FP FL 4.5, Sfp inh 12.7%, TRPV1 PAM 7.7, TRPML1 agonist 2.1, TRPML1 blocker 33.3 and PINK1 modulator -0.5%.
CCN(CC(=O)NC1CCS(=O)(=O)C1)S(=O)(=O)c1ccc(Cl)cc1C(F)(F)F (configuration not stated) was read as ClpP mod -2.7%, TRPV1 PAM -6.8, TRPML1 agonist 0.3, TRPML1 blocker -6.8 and PINK1 modulator -1.2%.
CCCCc1ccc(C(=O)COC(=O)c2ccc3nc(C)c(C)nc3c2)cc1 was read as ClpP mod -2.2%, TRPML1 agonist -0.1 and PINK1 modulator 2.1%.
`O=C(NNC(=O)c1cc(S(=O)(=O)N2CCCCC2)ccc1Cl)c1ccccc1O` gave ClpP mod 0.0%, TRPV1 PAM -1.7, TRPML1 agonist -0.9, TRPML1 blocker 11.2 and PINK1 modulator 1.8%.
Cc1cc(NC(=O)CCC(=O)N(c2ccccc2)C(C(=O)NC2CCCCC2)c2cccs2)no1 (configuration not stated) was read as Menin MLL FP FL -0.3, Sfp inh 7.5%, ClpP mod 2.0%, TRPV1 PAM -3.0, TRPML1 agonist -1.5, TRPML1 blocker 0.4 and PINK1 modulator -1.7%.
COc1ccc(C(=O)c2sc(Nc3ccccc3)c(C(=O)Nc3ccc(OC)c(OC)c3)c2N)cc1 was read as Menin MLL FP FL 1.5, Sfp inh -18.0%, ClpP mod -0.8%, TRPV1 PAM 1.3, TRPML1 agonist -0.2, TRPML1 blocker 6.7 and PINK1 modulator inconclusive.
COC(=O)N(C)C[C@@H]1OCc2cnnn2CCCC(=O)N([C@H](C)CO)C[C@@H]1C was read as ClpP mod -0.7%, TRPML1 agonist -0.5, TRPML1 blocker -15.2 and PINK1 modulator -0.8%.
Screening COc1ccc(NC(=O)CS(=O)CC(=O)Nc2ccc(F)cc2F)cc1 (configuration not stated) returned Menin MLL FP FL 2.9, Sfp inh 17.7%, TRPV1 PAM 8.5, TRPML1 agonist 0.1, TRPML1 blocker 9.7 and PINK1 modulator 2.4%.
CC(C)COC(=O)c1ccc(NC(=O)C2C3CCC(C3)C2C(=O)O)cc1 (configuration not stated) was read as Menin MLL FP FL 3.2, Sfp inh 11.7%, ClpP mod -0.9%, TRPV1 PAM -1.1, TRPML1 agonist 0.6, TRPML1 blocker -18.4 and PINK1 modulator 1.3%.
`COc1ccc(-c2nc(CS(=O)(=O)CC(=O)NCCCN3CCN(C)CC3)c(C)o2)cc1` gave Menin MLL FP FL -10.6, Sfp inh 5.5%, ClpP mod 3.4%, TRPV1 PAM 2.4, TRPML1 agonist -0.2, TRPML1 blocker 21.2 and PINK1 modulator -0.2%.
`O=C(CS(=O)(=O)Cc1ccccc1)NCC1CCCO1` (configuration not stated) gave Menin MLL FP FL 2.2, Sfp inh 0.7%, ClpP mod 2.0%, TRPV1 PAM -13.9, TRPML1 agonist -0.5, TRPML1 blocker 16.4 and PINK1 modulator 3.4%.
`CNC(=O)NC(=O)C(C)OC(=O)c1c2c(nc3ccccc13)/C(=C/c1cccs1)CC2` (configuration not stated) gave Menin MLL FP FL 4.7, Sfp inh 31.6µM*, ClpP mod -5.1%, TRPV1 PAM -31.8, TRPML1 agonist 4.6, TRPML1 blocker 15.5 and PINK1 modulator 11.6%.
For COC(CNC(=O)C(=O)Nc1cc2c3c(c1)CCN3C(=O)CC2)OC the results were Menin MLL FP FL -0.7, Sfp inh 9.6%, ClpP mod -4.2%, TRPV1 PAM 0.6, TRPML1 agonist 0.4, TRPML1 blocker 8.6 and PINK1 modulator 0.1%.
O=C(O)COc1ccc(/C=N/NC(=O)/C(=C/C=C/c2ccccc2)NC(=O)c2ccccc2)cc1 was read as Menin MLL FP FL 0.8, Sfp inh 18.3%, ClpP mod -1.9%, TRPV1 PAM -3.2, TRPML1 agonist 0.2, TRPML1 blocker -25.9 and PINK1 modulator 0.9%.
CC(C)(C)NC(=O)Cn1nnc(-c2ccc(Cl)cc2)n1 was read as Menin MLL FP FL 5.6, Sfp inh 12.5%, ClpP mod -0.6%, TRPV1 PAM 7.9, TRPML1 agonist -0.1 and TRPML1 blocker -12.7.
COc1cc2nc(N3CCN(C)CC3)nc(NC3CCN(Cc4ccccc4)CC3)c2cc1OC was read as ClpP mod 4.0%, TRPML1 agonist -0.2 and PINK1 modulator 11.6%.
For O=C(OCc1ccccc1)C1=NNC2C(=O)N(Cc3ccccc3)C(=O)C12 (configuration not stated) the results were Menin MLL FP FL -1.4, Sfp inh -19.3%, TRPV1 PAM 9.3, TRPML1 agonist 0.1, TRPML1 blocker -8.7 and PINK1 modulator -1.1%.
`O=C(CNC(=O)c1ccc(Br)o1)NCC1COc2ccccc2O1` (configuration not stated) gave ClpP mod 0.5%, TRPML1 agonist 0.0, TRPML1 blocker 1.2 and PINK1 modulator -0.3%.
O=C1C=C(c2ccc(F)c(Cl)c2)C[C@@H](c2ccc(F)cc2)C1 was read as ClpP mod 1.3%, TRPV1 PAM -4.3, TRPML1 agonist 6.3, TRPML1 blocker 12.9 and PINK1 modulator 1.2%.
`O=C(NCCN1CCOCC1)c1cc([N+](=O)[O-])ccc1Cl` gave Menin MLL FP FL -0.8, Sfp inh 8.3%, ClpP mod 1.6%, TRPV1 PAM -1.4, TRPML1 agonist -0.1, TRPML1 blocker 7.9 and PINK1 modulator -1.4%.
`Cc1ccc(C)c(Nc2ccc3nonc3c2[N+](=O)[O-])c1` gave Menin MLL FP FL 2.9, Sfp inh -1.0%, ClpP mod -2.2%, TRPV1 PAM -0.4 and PINK1 modulator -0.8%.
CC(=O)N1CCN(C(=O)CSc2ncnc3sc(C)c(C)c23)CC1 was read as ClpP mod -2.6%, TRPML1 agonist -0.5, TRPML1 blocker 16.7 and PINK1 modulator -1.3%.
